Screening results as filed in PubChem BioAssay.
Cruzain inh noDet: cruzain (T. cruzi) inhibition without detergent. actives 2.3% (n = 200,000). P25779. purified cruzain, Z-FR-AMC fluorescence, no detergent. AID 1476. Potency, µM, inactives show max response, negative = inhibition, hits mostly inhibitors; active = well fitted curve in the direction sought with a large enough effect; inconclusive = small, poorly fitted or top-dose-only effect, or another doubt; inactive = no such curve, though single readings can be large; an effect the other way counts as inactive or inconclusive;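 also: plate controls were enzyme without inhibitor for no effect and buffer without enzyme for full effect; nearly all actives have a fitted effect of over 40% in size; top concentration of the series not given in the record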
Target sequence (P25779 123-467 limits assumed): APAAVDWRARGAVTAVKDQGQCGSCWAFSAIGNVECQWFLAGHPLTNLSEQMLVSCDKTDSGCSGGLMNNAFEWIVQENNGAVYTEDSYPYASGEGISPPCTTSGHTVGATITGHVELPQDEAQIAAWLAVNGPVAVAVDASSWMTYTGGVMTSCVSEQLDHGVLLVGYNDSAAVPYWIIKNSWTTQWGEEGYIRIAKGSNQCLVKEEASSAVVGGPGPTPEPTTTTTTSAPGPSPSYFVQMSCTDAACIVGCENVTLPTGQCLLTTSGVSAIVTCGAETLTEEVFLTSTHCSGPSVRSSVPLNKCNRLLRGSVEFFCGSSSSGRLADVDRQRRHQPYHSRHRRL
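Detergent-free condition (0.00005% Triton X-100) in acetate buffer pH 5.5 with DTT. 1.5 nM enzyme and compound were pre-mixed 15 min, then 2 uM Z-FR-AMC substrate added; reaction progress from fluorescence change between first and third reads (60 s).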
Cruzain inh Det: inhibitors of Trypanosoma cruzi cruzain with detergent | actives 0.43% (n = 200,000) | P25779 | purified cruzain, Z-FR-AMC fluorescence, 0.01% Triton | AID 1478 | Potency, µM, for inactives: max response, negative = inhibition, hits mostly inhibitors; active = well fitted curve in the direction sought with a large enough effect; inconclusive = small, poorly fitted or top-dose-only effect, or another doubt; inactive = no such curve, though single readings can be large; an effect the other way counts as inactive or inconclusive;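 also: plate controls were neutral wells for no effect and buffer without enzyme for full effect; nearly all actives have a fitted effect of over 40% in size; top concentration of the series not given in the record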
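Read-out: AMC fluorescence (360 nm excitation, 450 nm emission), four reads over 2 min, first-to-third difference used. Conditions: cruzain 1.5 nM, Z-FR-AMC 2 uM, pH 5.5 acetate, 5 mM DTT, 0.01% Triton X-100.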
NS1 inh: inhibitors of influenza NS1 protein function; Potency, µM (highest dose often 46.1 µM), without a hit: at the top dose activity, positive = more growth; S. cerevisiae slowed by influenza A NS1, growth recovery by OD600; actives 0.4% (n = 270,000); also: actives are rising curves; nearly all actives have a fitted effect of over 50% in size
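A cell-based growth assay was used: compounds that relieve NS1-induced slow growth of budding yeast raise OD600. Assay medium was yeast nitrogen base with ammonium sulphate and -URA supplement, pH 6.0, with 2% galactose.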
Marburg entry inh: blocks Marburg virus binding to or entry into cells; Marburg virus pseudotyped entry inhibition, cell reporter; control for the full effect not named in the record; about a third of the inactives were read at about 46 µM; Potency, µM (top dose mostly 37.8 µM), inactives show top-dose activity change, negative = inhibition, most hits filed as inhibitors; actives 1.8% (n = 300,000); active = well fitted inhibition curve with a large enough effect; inconclusive = small, poorly fitted or top-dose-only effect, or effect the other way; inactive = flat fitted curve, though single readings scatter; tested in HEK293 cells; about a fifth of its hits are not listed in these tables; also: % is scaled to controls: 0 for no effect and ±100 for the full control effect; luciferase read-out
2A StopGo: lowers the luciferase signal of an FMDV 2A StopGo reporter; human cells with a luciferase reporter of 2A StopGo recoding; control for the full effect not named in the record; Potency, µM (titrated, usually from 57.9 µM), without a hit: top-dose signal change, negative = less light; actives 1.2% (n = 410,000); active = well fitted falling curve with a large enough effect; inconclusive = small, poorly fitted or top-dose-only effect; inactive = no such curve, though single readings can be large or run the other way; tested in HEK293T cells; also: % is scaled to controls: 0 for no effect and ±100 for the full control effect; nearly all actives have a fitted effect of over 45% in size; luciferase light after 4 h
RE007 growth inh: less growth of the S. pombe RE007 Vpr strain; S. pombe RE007 Vpr strain, BacTiter-Glo ATP luminescence, 24 h; control for the full effect not named in the record; actives 0.21% (n = 360,000); AID 651644; Potency, µM (highest dose often 92.2 µM), inactives show top-dose activity change, negative = less growth; active = well fitted falling curve with a large enough effect; inconclusive = small, poorly fitted or top-dose-only effect; inactive = no such curve, though single readings can be large or run the other way;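 also: % is scaled to controls: 0 for no effect and ±100 for the full control effect; nearly all actives have a fitted effect of over 50% in size; the assay follows cell death caused by Vpr and the record does not say whether a fall means rescue or toxicity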
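Fission yeast strain RE007, carrying one chromosomally integrated HIV-1 vpr copy, was seeded at OD 0.01 in PMG+AL medium with 23 nL pinned compound. After 24 h at 30 °C and 99% humidity, viability was read by BacTiter-Glo luminescence.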
Lassa entry inh: blocks Lassa virus binding to or entry into cells | Lassa virus pseudotype entry inhibition, cell reporter; control for the full effect not named in the record | AID 540256 | actives 1.2% (n = 300,000) | Potency, µM (titrated, usually from 37.9 µM), for inactives: at the highest dose activity change, negative = inhibition, actives largely listed as inhibitors; active means well fitted inhibition curve with a large enough effect; inconclusive means small, poorly fitted or top-dose-only effect, or effect the other way; inactive means flat fitted curve, though single readings scatter; tested in HEK293 cells; also: % is scaled to controls: 0 for no effect and ±100 for the full control effect; nearly all actives have a fitted effect of over 50% in size; luciferase read-out
SARS PLpro yeast: inhibitors of SARS-CoV papain-like protease in yeast | Potency, µM (highest dose often 32.9 µM), inactives show at the highest dose activity, positive = growth rescue | actives 0.19% (n = 330,000) | S. cerevisiae expressing SARS-CoV PLpro, growth rescue; control for the full effect not named in the record | AID 485353; also: 0% is about no effect; nearly all actives have a fitted effect of over 55% in size; growth read by luminescence after 48 h
The depositor's hits bear a star; u = inconclusive; x = no result given; & = joins results of further samples; [ ] = dose if it differs, or a comment. Unless noted, calls follow the shape of the dose curve; as a rule, active means well fitted rising curve with a large enough effect; inconclusive means small, poorly fitted or top-dose-only effect; inactive means no such curve, though single readings can be large or run the other way. Potency is read from the fitted curve at half-maximal effect. This is a random part of the collection; any-hit rate near 4.5%.

SMILES | Cruzain inh noDet | Cruzain inh Det | NS1 inh | Marburg entry inh | 2A StopGo | RE007 growth inh | Lassa entry inh | SARS PLpro yeast
CN(c1ccc(OCCOc2ccccc2Cl)cc1)S(=O)(=O)c1ccccc1 | x | x | x | x | -18.0% | 0.9% | u | 6.5%
CN(Cc1ccccc1)S(=O)(=O)c1ccc(-c2cnc(C3CC3)o2)cc1 | 18.4% | -5.1% | x | x | 0.0% | x | -28.3%[46.1 µM] | x
Clc1ccccc1N1CCN(c2ncnc3c2c(-c2ccccc2)cn3-c2ccccc2)CC1 | u | 1.3% | x | x | -17.4% | x | 7.9%[46.1 µM] | x
COC(=O)c1ccccc1NC(=O)CCNC(=O)Cn1cnc2ccccc2c1=O | 9.2% | 5.2% | 3.8% | -5.2% | -1.3% | 14.9% | 11.0% | -2.5%
CC(=O)N1c2ccc(S(=O)(=O)NCCC(=O)Nc3ccc(OC(F)(F)F)cc3)cc2CC1C (stereo not given) | x | x | 4.0% | x | -9.2% | 5.6% | x | -2.9%
COc1cc(/C=C(\C#N)c2nc3ccccc3[nH]2)cc(OC)c1O | x | x | -3.2% | -20.2%[46.1 µM] | 3.8% | -0.4% | 2.1%[46.1 µM] | -0.8%
CC(=O)c1sc2nsc(SCCN3CCCCC3)c2c1N | x | x | 2.3% | u | 19.4% | -20.6% | u | 0.5%
Cc1cccc(C)c1NC(=O)c1cc(S(=O)(=O)N2CCCc3ccccc32)ccc1F | u | 0.2% | x | x | -15.8% | x | -18.5%[46.1 µM] | x
CCCc1ccc(-c2cc(NC(=O)CSc3n[nH]c(N)n3)n(-c3ccccc3)n2)cc1 | u | -12.9% | 14.2% | u | 81.9%[activator] | -5.5% | 2.1% | 1.1%
O=C(OCc1nc2ccccc2s1)c1cccc(S(=O)(=O)N2CCOCC2)c1 | u | -4.8% | -10.8% | 17.3% | -2.8% | -19.5% | u | 2.6%
Cc1c(C(=O)N2CCN(c3ccccn3)CC2)cccc1[N+](=O)[O-] | x | x | x | -2.3% | -24.0% | -11.2% | -18.1% | 3.8%
Cc1ccc(NC(=O)C(Cc2ccccc2)NS(=O)(=O)c2cccc3nsnc23)c(C)c1 (stereo not given) | -2.0% | 2.5% | x | -3.3%[46.1 µM] | 39.8%[activator] | x | -9.3%[46.1 µM] | x
CCn1c2c(c3ccc(OC)cc31)CCCC2=O | 0.9% | -7.0% | -51.6% | 11.9% | -0.7% | u | 3.5% | -5.8%
O=C(Cn1cc([N+](=O)[O-])ccc1=O)Nc1ccc2c(c1)OCO2 | x | x | x | 1.3% | -18.8% | -19.7% | 18.2% | 1.8%
Cc1ccc2cc(CN(CC3CCCO3)C(=S)NCc3ccco3)c(=O)[nH]c2c1 (stereo not given) | x | x | 0.6% | u | 25.4% | 2.2% | -27.9% | -1.5%
Cc1ccc(S(=O)(=O)NC(CC(C)C)C(=O)N2CCOCCOCCOCCOCC2)cc1 (stereo not given) | x | x | 1.7% | x | 1.1% | -9.4% | 5.2% | 0.7%
COc1cccc(NC(=O)NC2(C(=O)N3CCN(C)CC3)CCCCC2)c1 | x | x | 3.7% | -13.8%[46.1 µM] | -7.6% | -3.3% | -8.5%[46.1 µM] | -7.0%
COc1ccc(CC(=O)NC2CC(C)(C)NC(C)(C)C2)cc1 | 3.1% | -1.1% | -3.5% | 4.8% | -5.3% | 14.6% | 8.5% | 5.7%
CCc1nn(CCCC(=O)NCc2ccccc2OC)c(=O)c2cc3occc3n12 | -6.5% | -0.8% | x | -12.5%[46.1 µM] | -17.4% | x | 27.5%[46.1 µM] | x
Cc1csc(SC(C)C(=O)Nc2ccc(S(=O)(=O)N3CCCC3)cc2)n1 (stereo not given) | -13.7% | -1.6% | -4.2% | -0.3%&-0.3%[46.1 µM] | -15.1% | -14.7% | 0.5% | 2.8%
OCC#CC[N+]1(CC#Cc2ccccc2)CCOCC1 | x | x | x | 8.5%[46.1 µM] | -2.2% | -14.7% | x | 1.7%
Cc1ccc(NC(=O)C2CCCN2S(=O)(=O)c2cccc3nsnc23)c(Br)c1 (stereo not given) | 3.2% | -2.6% | x | -0.4%[46.1 µM] | -16.7% | x | -6.3%[46.1 µM] | x
COc1ccc(N2C(=O)CS(=O)(=O)C23C(=O)N(Cc2ccc(F)cc2)c2ccc(C)cc23)cc1 (stereo not given) | 3.16µM* | -2.8% | x | x | 0.0% | x | -3.0%[46.1 µM] | x
CCOC(=O)CC12CN3CN(C1)CC(CC(=O)OCC)(C3)C2=O | 0.8% | -5.2% | 3.0% | 14.8% | x | 10.5% | 12.9% | 0.9%
Cc1ccc(/C=C2\SC(=S)N(C3CCS(=O)(=O)C3)C2=O)cc1 (stereo not given) | x | x | x | -5.7%[14.2 µM] | -17.2% | -0.4% | -15.1% | -2.1%
CSc1nnc(-c2sc3cc(Cl)ccc3c2Cl)n1C | 5.7% | -1.9% | -47.0% | -15.3% | 23.7% | 10.1% | -2.7% | -2.8%
COC(=O)C(Cc1ccccc1)NC(=O)CNC(=O)c1ccc(Br)cc1 (stereo not given) | x | x | -2.7% | 3.7%[46.1 µM] | 19.1% | 22.7% | x | 0.3%
O=C1NCC(c2ccccc2)C1C(=O)N/N=C/c1ccc(Cl)s1 (stereo not given) | x | x | 0.4% | 2.0%[46.1 µM] | 9.8% | -6.8% | 12.3%[46.1 µM] | -0.2%
O=C(NCc1cccs1)c1cccnc1SCCS(=O)(=O)c1ccc(C(F)(F)F)cn1 | x | x | 3.7% | u | -15.1% | -2.5% | -9.1%[46.1 µM] | 0.1%
Cc1ccc(NC(=S)NCCSc2ccc(Cl)cc2)cc1 | x | x | x | u | 18.7% | -6.3% | -9.0% | 11.3%
COc1c(C(=O)Nc2ccc3[nH]c(=O)[nH]c3c2)cc2ccccc2c1Br | x | x | 1.0% | u | -9.2% | -19.2% | u | 0.1%
CCCc1nnc(NC(=O)c2cn(CC)c3cc(N4CCN(C)CC4)c(F)cc3c2=O)s1 | x | x | 2.8% | x | 50.2%[activator] | 0.8% | x | 0.9%
COc1ccc(S(=O)(=O)N(CC(=O)NCC2CCCO2)Cc2ccccc2)cc1C (stereo not given) | x | x | -5.9% | 20.0%[46.1 µM] | 1.0% | 18.4% | u | 0.9%
CCOC(=O)c1sc(NC(=O)c2ccc(S(=O)(=O)N3CCOCC3)cc2)cc1C | 20.8% | -5.8% | -46.0% | -20.6% | -27.5% | 1.3% | u | -2.4%
O=C(COc1ccc(F)cc1)Nc1ccc2nc(SCCOc3ccccc3)sc2c1 | -5.9% | -2.3% | x | u | -2.3% | x | 10.0%[46.1 µM] | x
CSc1sc(-c2nnc(SCC(=O)Nc3ccccc3)n2C)c2c1C=CCC2 | x | x | 4.4% | 3.2% | -24.8% | -6.4% | -0.9% | 0.8%
CCOC(=O)c1ccccc1NC(=O)CC1SC(=NC)N(C)C1=O (stereo not given) | 5.1% | 3.6% | -12.0% | 5.5% | -20.0% | 1.9% | 0.2% | 6.1%
O=C(NCc1ccc(Cl)cc1)c1cccc(NC(=O)c2ccccc2)c1 | -8.8% | -5.0% | 0.1% | u | u | u | u | 2.0%
O=C(Nc1nc2ccc(S(=O)(=O)N3CCCC3)cc2s1)c1cccc(F)c1 | -12.9% | 0.7% | x | x | -9.5% | x | 3.0%[46.1 µM] | x
C=CCNC(=S)Nc1cc(S(=O)(=O)N2CCOCC2)ccc1-n1cncn1 | 11.5% | 2.4% | -1.5% | -6.2% | 0.0% | x | 0.5% | -15.4%
CCOc1ccc(-n2c(C)cc(/C=N/NC(=O)C(N)=O)c2C)cc1 | x | x | -6.4% | 1.2%[46.1 µM] | 2.1% | -0.4% | -19.6% | -2.4%
Cc1cccc(C)c1-n1ncc(C(=O)Nc2ccc3c(c2)OCCO3)c1C1CCN(C(=O)OC(C)(C)C)CC1 | -12.1% | -2.9% | x | x | -17.6% | x | u | x
O=S(=O)(c1ccc(Br)cc1)c1nc(-c2cccs2)oc1SCc1ccc(F)cc1 | u | -3.6% | x | -13.9%[46.1 µM] | 20.6% | x | -6.3%[46.1 µM] | x
CCCn1c(SCC(=O)N2CCc3ccccc32)nnc1-c1ccco1 | u | 2.5% | -9.6% | 21.0%[46.1 µM] | -22.0% | 4.5% | -8.2% | 2.9%
Cc1ccc(C)c(SCC(=O)Nc2oc(C)c3c(C)n[nH]c(=O)c23)c1 | x | x | x | 10.1% | -25.9% | 3.6% | 20.7% | -2.3%
CS(=O)(=O)N(CC(=O)NCc1ccncc1)c1cc(Cl)cc(Cl)c1 | 4.9% | 0.2% | 3.0% | -6.5% | -20.3% | 7.4% | 1.0% | -8.0%
COc1cccc(NC(=O)c2cc(CN3CCOCC3)on2)c1 | -12.5% | -1.9% | x | x | 38.7%[activator] | x | u | x
C=CCc1c(C)nc2nc(SCC(=O)Nc3ccccc3CC)nn2c1C | 5.0% | 0.0% | x | x | -7.3% | x | 2.3%[46.1 µM] | x
Cc1cc(C)nc(N(C#N)C(C)C(=O)N(C)C)n1 (stereo not given) | -0.9% | -1.9% | -0.3% | u | -11.3% | 5.8% | -1.9% | -5.5%
COc1ccc2c(=O)c3c(=O)n(Cc4ccco4)c(-c4ccc(C)cc4)nc3oc2c1 | -22.8% | -6.4% | -99.0% | 10.7% | u | 1.0% | -5.7% | -7.0%
CCNc1ccc(C(=O)N/N=C/c2c(C)nn(-c3ccccc3)c2N2CCCC2)cc1[N+](=O)[O-] | 5.7% | -9.9% | 16.1% | 8.5% | u | -6.7% | 0.7% | 2.6%
CN(Cc1ccccc1)Cc1nc2c(c(=O)n(C)c(=O)n2C)n1CCc1ccccc1 | x | x | -46.8% | u | x | 7.9% | 14.2% | x
Cc1nn(C)c(Cl)c1CN1CCN(C2CCCC2)C(CCO)C1 (stereo not given) | x | x | 8.6% | -1.7%[46.1 µM] | -4.6% | -1.8% | 6.5%[46.1 µM] | -2.6%
COc1ccc(NC(=O)CC2C(=O)N(C)C(=S)N2Cc2cccs2)cc1 (stereo not given) | -4.2% | -1.8% | -7.7% | -6.2% | 23.4% | 6.3% | -3.4% | -4.4%
